High-throughput results (PubChem)
VDR inh: inhibitors of human vitamin D receptor; AID 504847; VDR-SRC2-3 peptide fluorescence polarization, 2 h; Potency, µM, for the others: max response, negative = inhibition, most hits filed as inhibitors; 0.93% of 400,000 active; active = well fitted inhibition curve with a large enough effect; inconclusive = small, poorly fitted or top-dose-only effect, or another doubt; inactive = no such curve, though single readings can be large or run the other way; note: series mostly up to about 120 µM
Target sequence (P11473 whole entry, looked up): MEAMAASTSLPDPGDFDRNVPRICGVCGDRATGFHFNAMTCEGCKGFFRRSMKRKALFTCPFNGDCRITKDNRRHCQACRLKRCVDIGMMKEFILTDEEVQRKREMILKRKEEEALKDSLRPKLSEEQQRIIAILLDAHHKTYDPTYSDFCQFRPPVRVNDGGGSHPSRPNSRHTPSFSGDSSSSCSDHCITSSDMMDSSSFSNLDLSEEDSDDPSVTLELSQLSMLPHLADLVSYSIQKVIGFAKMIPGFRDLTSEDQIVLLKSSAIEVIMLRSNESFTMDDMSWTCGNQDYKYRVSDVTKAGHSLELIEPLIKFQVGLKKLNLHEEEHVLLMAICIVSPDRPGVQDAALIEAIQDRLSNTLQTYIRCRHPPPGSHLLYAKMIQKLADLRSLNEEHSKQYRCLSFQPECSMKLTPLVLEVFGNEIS
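Fluorescence polarization assay measuring small-molecule disruption of VDR binding to the coregulator peptide SRC2-3. Compounds were pin-transferred (23 nl) into the reagent mix and incubated 2 h at room temperature before reading.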
* marks the source's active call; other numbers are inactive results; u = inconclusive; & = joins results of further samples; [ ] = remark or other dose. % is set by controls: 0 for no effect and ±100 for the full control effect; potency is the fitted concentration of half-maximal effect.

SMILES	VDR inh
O=C1NC(=O)/C(=C/c2ccc(-c3ccc(F)cc3O)o2)S1	12.6µM*
CCC(C)n1c(SCC(=O)NC(=O)Nc2ccc3c(c2)OCCO3)nc2ccccc2c1=O (stereo not given)	3.9%
CC1CCN(C(=O)c2ccccc2NC(=O)c2cccs2)CC1	-20.0%
Nn1c(SCC(=O)Nc2ccc(N3CCOCC3)cc2)nnc1C1CC1	-5.8%
O=C1CCC(C(=O)N2CCCC(N3CCN(c4cccc(C(F)(F)F)c4)CC3)C2)=NN1 (stereo not given)	-2.4%
O=C(Cc1cccs1)Nc1ccc(S(=O)(=O)N2CCCC2)cc1	3.1%
O=C(NCc1ccco1)C1CCN(C(=O)c2cc3sccc3n2Cc2ccc(F)cc2)CC1	5.2%
CCOc1ccc(S(=O)(=O)N2CCC(C(=O)OCc3ccc(OC)cc3)CC2)cc1	1.2%
CCOC(=O)c1ccc(NC(=O)CSc2nnc(-c3ccncc3)n2C)cc1	-7.0%
COc1ccc(C(=O)NC(=S)Nc2cccc(NC(=O)c3ccco3)c2)cc1[N+](=O)[O-]	-13.7%
COC(=O)c1ccccc1NC(=O)CC(NCc1ccccc1)C(=O)O (stereo not given)	-4.3%
Cc1ccsc1/C=N/NC(=O)C1C(=O)NCC1c1ccccc1 (stereo not given)	11.6%
Cc1cc2nc(C)c(Cc3ccccc3)c(=O)n2[nH]1	-13.7%
CCCCc1nc(SCc2ccc([N+](=O)[O-])cc2)n[nH]1	-17.5%
O=C(OCC#CCSc1nnc(-c2cccc3ccccc23)o1)c1ccc(Br)cc1	-5.5%
CCc1nc2oc3ccccc3c(=O)c2c(=O)n1CCOC	-15.1%
Cc1noc(C)c1COC(=O)Cc1ccc(Cl)cc1	-4.7%
CCOC(=O)C(Cc1ccc(O)cc1)Nc1nc2ccccc2o1 (stereo not given)	7.1%
CCN1CCN(CNC(=O)c2cnccn2)CC1	24.3%
Cc1ccsc1/C=C1/C(=O)NN(c2ccccc2)C1=O	-28.0%
Cn1ncc2c(=S)nc(Cl)[nH]c21	u
Cc1ccc(Cn2c(CCNC(=O)c3cccc(C)c3)nc3ccccc32)cc1	-6.2%
COc1ccc(C2(O)CN(c3ccccc3)C3=[N+]2CCS3)cc1OC (stereo not given)	1.4%
O=C(COC(=O)c1cc(F)c(F)cc1Cl)NC1CC1	7.2%
CC(C)CCOc1ccc(CO[C@@H]2[C@H]3OC(C)(C)O[C@H]3O[C@@H]2C(O)CO)cc1 (stereo not given in full)	6.9%
CC(=O)N1CCc2c(sc3c2c(=O)n(Cc2ccccc2)c(=O)n3CC(=O)NCC2CCCO2)C1 (stereo not given)	-1.7%
CCCCSc1nc2ccc(Nc3nc(N4CCOCC4)nc(N4CCOCC4)n3)cc2s1	-10.8%
CC/C=C1/N=C2C(=O)N(C)C(=O)N=C2N(C)N1	-12.6%
O=c1[nH]ncc(NCCc2ccccc2)c1Cl	14.7%
CN1C(=O)c2[nH]nc(-c3ccc(F)cc3)c2C1c1cccc(O)c1 (stereo not given)	0.5%
O=C(Oc1nsnc1N1CCOCC1)N(c1ccccc1)c1ccccc1	7.7%
Cc1c(C(=O)N2CCN(c3ccccc3F)CC2)oc2c1C(=O)CC(C)(C)C2	7.0%
COc1ccc(NC(=S)N2CCN(S(=O)(=O)c3ccc(C)cc3)CC2)cc1	-8.4%
COc1cc(OC)c(OC)cc1CNC(=O)c1ccc(S(=O)(=O)N2CC(C)OC(C)C2)cc1 (stereo not given)	1.1%
CCOc1ccc(-c2cc(CCCC(=O)NCCc3ccc(Cl)cc3)no2)cc1	8.0%
COC(=O)c1cnn(-c2cc(Oc3ccccc3)ncn2)c1N	6.3%
COc1ccccc1N1C(=O)C2C(C(=O)c3ccccc3)=NN(c3ccccc3)C2C1=O (stereo not given)	10.7%
CCOC(=O)Nc1n[nH]c(NC(=O)OCC)c1[N+](=O)[O-]	16.0%
Cc1[nH]c2ccccc2c1C(=O)COC(=O)c1c(-c2c(F)cccc2Cl)noc1C	-8.9%
Cc1cc(C)c(NC(=O)CN2C(=O)CCn3nc(-c4cccn4C)cc32)c(C)c1	4.7%
O=C1NC[C@H](Cc2ccccc2)N(C[C@H]2CCCN2C[C@H](Cc2ccccc2)N2C[C@H](Cc3ccc(O)cc3)N(CCc3ccccc3)C(=O)C2=O)C1=O	-12.5%
CCC(C(=O)NCc1ccco1)N(C(=O)CNS(=O)(=O)c1ccccc1)c1ccc(F)cc1 (stereo not given)	11.0%
CCCOc1ccc(/C(O)=C2/C(=O)C(=O)N(CCN(C)C)C2c2ccncc2)cc1 (stereo not given)	5.5%
CC(=O)N(c1cc(C)ccc1C)c1ccccc1[N+](=O)[O-]	-2.8%
Cc1ccc(CCNS(=O)(=O)c2c(C)nc3sccn3c2=O)cc1	-7.0%
Cc1ccc(-c2nonc2NC(=O)c2ccco2)cc1	-2.1%
CCOC(=O)C1=C(CC)Nc2ccccc2N/C1=N\S(=O)(=O)c1ccc2ccccc2c1	32.2%[activator]
CC(C)C(NC(=O)c1ccc(F)cc1)C(=O)N1CCOCC1 (stereo not given)	-3.3%
Cc1ccc(S(=O)(=O)NCC(=O)NCc2cc(=O)n(C)c(=O)n2C)cc1	2.2%
Cc1cccc(NC(=O)CSc2nnc(CNC(=O)c3ccc(S(=O)(=O)N(C)C)cc3)n2-c2cccc(C)c2)c1	-6.2%
O=C(COc1ccc(Cl)cc1)Nc1ccc(O)c(-c2nc3ccccc3s2)c1	6.8%
COc1ccc(CCC(=O)N2CCCc3ccccc32)cc1	-0.3%
COc1ccc(CCC(=O)NCCc2nc3ccccc3[nH]2)cc1	10.1%
Cc1cc(C)n(-c2c(F)c(F)c(CO)c(F)c2F)n1	0.9%
CCOc1c(O)ccc(C2NC(=O)N(C)C(C)=C2C(=O)OC)c1[N+](=O)[O-] (stereo not given)	-3.8%
CC12CCC(C/C1=N/NC(=O)COc1ccccc1Cl)C2(C)C (stereo not given)	-4.4%
COc1ccc2nc(NC(=O)CCNC(=O)c3ccccc3Cl)sc2c1	16.4%
CCN(CC)C(=O)COc1ccc2c3c(c(=O)oc2c1)CCCC3	-1.4%
COc1ccc(N(CC(=O)NCCc2ccc(C)cc2)S(=O)(=O)c2c(C)noc2C)cc1	3.5%
C#CCOCCOCCOCCNc1nc(N2CCN(C(=O)C([C@@H](C)CC)n3cc(C(N)COC(=O)C(F)(F)F)nn3)CC2)nc(N2CCN(C(=O)C([C@@H](C)CC)n3cc(C(N)CC(C)C)nn3)CC2)n1 (stereo not given in full)	-11.9%

Additional entries follow:
SMILES	VDR inh
CCc1nc2nc(C)c(NS(=O)(=O)c3ccc(C(C)(C)C)cc3)c(=O)n2[nH]1	-12.2%
O=C(Nc1ccc(Cl)c(C(F)(F)F)c1)C1CCN(S(=O)(=O)c2cccc3nonc23)CC1	-0.9%
COc1cccc(CNS(=O)(=O)c2cc(Br)cc3c2N(C(C)=O)C(C)C3)c1 (stereo not given)	-19.9%&0.7%
COc1cc(/C=C/C(=O)Nc2ccc(C)cc2)cc(OC)c1OC	-9.3%
COc1ccccc1NCCC(=O)OCC(=O)NC1CC1	1.3%
C#CCOCCOCCOCCNc1nc(N2CCN(C(=O)C([C@@H](C)O)n3cc([C@@H](N)CCCCN)nn3)CC2)nc(N2CCN(C(=O)[C@H](CCCN=C(N)N)n3cc(C(N)[C@@H](C)CC)nn3)CC2)n1 (stereo not given in full)	-5.3%
CCOC(=O)c1ccccc1NC(=O)N1CCN2CCCCC2C1 (stereo not given)	5.5%
C[C@@H]1NC(=O)c2cc([N+](=O)[O-])cc(I)c2NCC[C@@H](C(N)=O)NC(=O)[C@H](CC(N)=O)NC1=O	-10.4%
CCc1ccc(/C=N/NC(=O)c2nnn(-c3nonc3N)c2CN2CCOCC2)cc1	-7.3%
c1ccc2c(-c3c[nH]c4ccccc34)c3ccccc3nc2c1	14.4%
CC(C)NC(=O)CN1CCN(Cc2nc(-c3cccs3)no2)CC1	6.5%
CC(C)NC(=O)COc1ccc(S(=O)(=O)N2CCCC2)cc1	-5.6%
Cc1ccc(S(=O)(=O)[N-]c2nc3ccccc3nc2-[n+]2cc(C)cc(C)c2)cc1	-0.7%
CCc1cc(-c2n[nH]c(C)c2-c2nc3ccccc3n2C)c(O)c(CN2CCN(C)CC2)c1O	-3.2%
COc1ccc(C(=O)NCCNC(=O)c2ccc(C)nc2)cc1	9.0%
CC(C)[C@H](NC(=O)c1ccccc1)C(=O)OCC(=O)NCCC1=CCCCC1	-7.2%
C=CCn1c(C)nnc1SCC(=O)Nc1ccc2c(c1)OCCO2	-9.7%
Cc1ccc(C(=O)NS(=O)(=O)c2ccc(C)cc2)cc1	6.7%
COC(=O)c1[nH]c2c(c1C)C(=O)CC(c1cccc(OC)c1)C2 (stereo not given)	-9.3%
COc1ccc2[nH]cc(CCNc3ncncc3-c3ccccc3CN(C)C)c2c1	1.7%
O=S(=O)(c1cccc(-c2cn3cccnc3n2)c1)N1CCCCCC1	3.5%
COC(=O)c1ccc(CSc2nc3c(cnn3-c3ccc(C)c(C)c3)c(=O)[nH]2)o1	-19.3%
Cc1ccccc1Nc1nc(CSc2nnc(-c3ccoc3C)n2C)cs1	-5.7%
CC(=O)c1ccc(N2CCN(c3ccc(NC(=O)c4ccc(F)cc4)cc3C(=O)O)CC2)cc1	-1.0%
COc1cccc(CNC(=O)Cn2c(=O)oc3cc(S(=O)(=O)N4CCC(C)CC4)ccc32)c1	-16.8%
CCN1CCN(CC(=O)c2ccc(OC)cc2)CC1	-14.9%
Cc1cccc(C)c1NC(=O)CS(=O)(=O)c1nc(-c2ccc(Cl)cc2)cn1-c1ccccc1	11.7%
NC(=O)C1CCN(C(=O)CCC(=O)c2cccs2)CC1	0.6%
CCOc1ccc(OCCSc2ccc(S(=O)(=O)N3CCN(C)CC3)cn2)cc1	7.7%
Cc1cccc(NC(=O)C2CCN(C(=O)c3ccc(F)cc3)CC2)n1	1.4%
CCCCN1CCc2nc(N3CCN(c4ncccn4)CC3)ncc2C1	12.3%
Cc1onc(-c2c(F)cccc2Cl)c1C(=O)c1ccccc1	16.2%
COc1cc2c(cc1OC)CN(C(=O)c1cc(S(=O)(=O)N3CCOCC3)c(Cl)cc1Cl)CC2	-14.0%
O=C(NC(=S)NCCC1=CCCCC1)c1cccnc1	7.3%
Cc1ccc(CN2CCN(/N=C/c3ccc(O)c(O)c3)CC2)cc1	-18.9%
COc1ccc(-c2sc3ccccc3c2-c2ccc(OCCN(C)C)cc2)cc1	4.6%
Cc1cc(=O)n(Cc2cccc(Cl)c2)c2c1c(C)nn2-c1ccccc1	7.7%
Cc1ccc(S(=O)(=O)NCCN2CCOCC2)s1	-9.6%
O=C(COC(=O)Cc1ccc(S(=O)(=O)N2CCOCC2)s1)Nc1ccc2c(c1)OCO2	11.4%
Cc1cc(Nc2cccc(O)c2)c2cccc(Br)c2n1	0.5%

The closing 7 entries of the part above open the next one.
SMILES	VDR inh
O=C(NC(=S)NCCC1=CCCCC1)c1cccnc1	7.3%
Cc1ccc(CN2CCN(/N=C/c3ccc(O)c(O)c3)CC2)cc1	-18.9%
COc1ccc(-c2sc3ccccc3c2-c2ccc(OCCN(C)C)cc2)cc1	4.6%
Cc1cc(=O)n(Cc2cccc(Cl)c2)c2c1c(C)nn2-c1ccccc1	7.7%
Cc1ccc(S(=O)(=O)NCCN2CCOCC2)s1	-9.6%
O=C(COC(=O)Cc1ccc(S(=O)(=O)N2CCOCC2)s1)Nc1ccc2c(c1)OCO2	11.4%
Cc1cc(Nc2cccc(O)c2)c2cccc(Br)c2n1	0.5%
CCn1ccc(C(=O)NCc2ccc3c(c2)OCO3)n1	6.7%
CCc1ccc(NC(=O)CSc2nc(CSc3ccc(C)cc3)cc(=O)[nH]2)cc1	16.0%
CCC(C)Oc1nc2ccccc2nc1NS(=O)(=O)c1ccccc1 (stereo not given)	2.9%
Cc1ccc2c(c1)N(CCCC(=O)NCCCN1CCCCC1)C(=O)CO2	-9.5%
O=C(OCc1ccccc1Cl)c1ccc(-c2nnn(Cc3ccc(F)cc3)n2)cc1	-7.3%
O=S(=O)(c1cnccc1N1CCN(/N=C/c2ccccc2)CC1)N1CCCCC1	-12.7%
Cc1ccc(NC(=O)CSc2nnc3[nH]c(=O)cc(C)n23)cc1Cl	5.5%
O=C1Cc2cc(NS(=O)(=O)c3ccc(Cl)cc3)cc3c2N1CCC3	-5.8%
Nc1cccc(Nc2ncnc3ccccc23)c1	-16.2%
O=C(C1=C[C@H](c2ccccc2)C[C@H](OCc2ccc(CO)cc2)O1)N1CCN(Cc2ccc3c(c2)OCO3)CC1	-3.7%
COc1ccc2c(c1OC)C(=O)N1N=C(c3ccc(Br)cc3)CC21 (stereo not given)	-6.4%
CCN1C(=O)/C(=C\c2ccncc2)SC1=Nc1ccc(C)c(C)c1	u
CCOc1ccc(NS(=O)(=O)c2ccc(C(=O)NCC3(N4CCCCC4)CCCCC3)cc2)cc1	9.5%
COc1cc(OC)c2c(C)c(Cl)c(=O)oc2c1	13.1%
Cc1ccc(/C=N/NC(=O)CN(Cc2ccccc2)S(=O)(=O)c2ccc3c(c2)OCCO3)cc1	2.5%
C=CCNC(=O)COc1ccc(S(=O)(=O)Nc2ccc(OCC)cc2)cc1	-9.4%
COC(=O)c1ccccc1NC(=O)/C=N/O	1.6%
COc1ccccc1N1CCN(C(c2ccccc2)c2nnc(-c3ccccc3Cl)o2)CC1 (stereo not given)	4.1%
COc1ccc(Nc2ncc3c(n2)CC(c2ccc(C)cc2)CC3=O)cc1 (stereo not given)	2.1%

4 of the entries above in order of the VDR inh value, high to low.
SMILES	VDR inh
CCOc1ccc(NS(=O)(=O)c2ccc(C(=O)NCC3(N4CCCCC4)CCCCC3)cc2)cc1	9.5%
Cc1ccc(NC(=O)CSc2nnc3[nH]c(=O)cc(C)n23)cc1Cl	5.5%
C=CCNC(=O)COc1ccc(S(=O)(=O)Nc2ccc(OCC)cc2)cc1	-9.4%
O=S(=O)(c1cnccc1N1CCN(/N=C/c2ccccc2)CC1)N1CCCCC1	-12.7%

Some of the compounds tested (hit frequency here may not be typical).
